From PubChem BioAssay
Marburg entry inh – blocks Marburg virus binding to or entry into cells. Marburg virus pseudotyped entry inhibition, cell reporter; control for the full effect not named in the record; about a third of the inactives were read at about 46 µM. Potency, µM (titrated, usually from 37.8 µM), for inactives: top-dose activity change, negative = inhibition, usual class: inhibitors. 300,000 compounds, 1.8% hits. AID 540276; active = well fitted inhibition curve with a large enough effect; inconclusive = small, poorly fitted or top-dose-only effect, or effect the other way; inactive = flat fitted curve, though single readings scatter; tested in HEK293 cells; about a fifth of its hits are not listed in these tables; further: on the % scale 0 is the no-effect control and ±100 the full control effect; luciferase read-out
SARS PLP yeast – blocks SARS-CoV papain-like protease in a yeast assay; 330,000 compounds, 0.19% hits; Potency, µM (series often up to 32.9 µM), for inactives: at the highest dose activity, positive = growth rescue; S. cerevisiae expressing SARS-CoV PLpro, growth rescue; control for the full effect not named in the record; AID 485353; active means well fitted rising curve with a large enough effect; inconclusive means small, poorly fitted or top-dose-only effect; inactive means no such curve, though single readings can be large or run the other way; further: 0% is about no effect; nearly all actives have a fitted effect of over 55% in size; growth read by luminescence after 48 h
Cruzain inh noDet – cruzain (T. cruzi) inhibition without detergent | P25779 | purified cruzain, Z-FR-AMC fluorescence, no detergent | Potency, µM, for the others: max response, negative = inhibition, hits mostly inhibitors | 200,000 compounds, 2.3% hits | AID 1476;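 further: plate controls were enzyme without inhibitor for no effect and buffer without enzyme for full effect; nearly all actives have a fitted effect of over 40% in size; top concentration of the series not given in the record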
Target sequence (P25779 123-467 limits assumed): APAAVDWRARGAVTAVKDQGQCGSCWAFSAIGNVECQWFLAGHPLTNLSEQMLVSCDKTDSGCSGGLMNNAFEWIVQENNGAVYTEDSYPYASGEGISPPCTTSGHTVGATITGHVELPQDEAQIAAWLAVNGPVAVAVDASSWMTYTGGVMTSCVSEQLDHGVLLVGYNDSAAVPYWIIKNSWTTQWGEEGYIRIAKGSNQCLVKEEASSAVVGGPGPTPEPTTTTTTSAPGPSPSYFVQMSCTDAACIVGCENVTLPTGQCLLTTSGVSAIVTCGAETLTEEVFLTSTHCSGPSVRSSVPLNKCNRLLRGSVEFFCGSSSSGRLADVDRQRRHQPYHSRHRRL
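Detergent-free condition (0.00005% Triton X-100) in acetate buffer pH 5.5 with DTT. 1.5 nM enzyme and compound were pre-mixed 15 min, then 2 uM Z-FR-AMC substrate added; reaction progress from fluorescence change between first and third reads (60 s).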
LASV entry inh – Lassa virus entry inhibition; Lassa virus pseudotype entry inhibition, cell reporter; control for the full effect not named in the record; 300,000 compounds, 1.2% hits; Potency, µM (top dose mostly 37.9 µM), without a hit: at the highest dose activity change, negative = inhibition, usual class: inhibitors; AID 540256; active means well fitted inhibition curve with a large enough effect; inconclusive means small, poorly fitted or top-dose-only effect, or effect the other way; inactive means flat fitted curve, though single readings scatter; tested in HEK293 cells; further: on the % scale 0 is the no-effect control and ±100 the full control effect; nearly all actives have a fitted effect of over 50% in size; luciferase read-out
RE007 growth inh – less growth of the S. pombe RE007 Vpr strain | S. pombe RE007 Vpr strain, BacTiter-Glo ATP luminescence, 24 h; control for the full effect not named in the record | Potency, µM (series often up to 92.2 µM), without a hit: at the highest dose activity change, negative = less growth | AID 651644 | 360,000 compounds, 0.21% hits; active = well fitted falling curve with a large enough effect; inconclusive = small, poorly fitted or top-dose-only effect; inactive = no such curve, though single readings can be large or run the other way;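 further: on the % scale 0 is the no-effect control and ±100 the full control effect; nearly all actives have a fitted effect of over 50% in size; the assay follows cell death caused by Vpr and the record does not say whether a fall means rescue or toxicity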
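Fission yeast strain RE007, carrying one chromosomally integrated HIV-1 vpr copy, was seeded at OD 0.01 in PMG+AL medium with 23 nL pinned compound. After 24 h at 30 °C and 99% humidity, viability was read by BacTiter-Glo luminescence.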
Cruzain inh Det – blocks cruzain activity in presence of Triton detergent | purified cruzain, Z-FR-AMC fluorescence, 0.01% Triton | P25779 | 200,000 compounds, 0.43% hits | AID 1478 | Potency, µM, inactives show max response, negative = inhibition, usual class: inhibitors;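 further: plate controls were neutral wells for no effect and buffer without enzyme for full effect; nearly all actives have a fitted effect of over 40% in size; top concentration of the series not given in the record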
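Cruzain (1.5 nM) preincubated 15 min at RT with compound in 100 mM sodium acetate pH 5.5, 5 mM DTT, 0.01% Triton X-100. Reaction started with 2 uM Z-FR-AMC; AMC fluorescence (ex 360/em 450 nm) change over 60 s gave rate.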
NS1 function inh – inhibitors of influenza NS1 protein function | S. cerevisiae slowed by influenza A NS1, growth recovery by OD600 | Potency, µM (series often up to 46.1 µM), for inactives: at the highest dose activity, positive = more growth | 270,000 compounds, 0.4% hits; active means well fitted rising curve with a large enough effect; inconclusive means small, poorly fitted or top-dose-only effect; inactive means no such curve, though single readings can be large or run the other way; further: nearly all actives have a fitted effect of over 50% in size
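A cell-based growth assay was used: compounds that relieve NS1-induced slow growth of budding yeast raise OD600. Assay medium was yeast nitrogen base with ammonium sulphate and -URA supplement, pH 6.0, with 2% galactose.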
2A StopGo – FMDV 2A StopGo reporter, luciferase signal; AID 1159524; human cells with a luciferase reporter of 2A StopGo recoding; control for the full effect not named in the record; Potency, µM (titrated, usually from 57.9 µM), inactives show top-dose signal change, negative = less light; 410,000 compounds, 1.2% hits; active = well fitted falling curve with a large enough effect; inconclusive = small, poorly fitted or top-dose-only effect; inactive = no such curve, though single readings can be large or run the other way; tested in HEK293T cells; further: on the % scale 0 is the no-effect control and ±100 the full control effect; nearly all actives have a fitted effect of over 45% in size; luciferase light after 4 h
* marks the source's active call; other numbers are inactive results; ? = inconclusive; . = not tested or not shown; & = joins results of further samples; [ ] = dose if it differs, or a comment. Unless noted, the call rests on the fitted dose curve; in most records, active means well fitted curve in the direction sought with a large enough effect; inconclusive means small, poorly fitted or top-dose-only effect, or another doubt; inactive means no such curve, though single readings can be large; an effect the other way counts as inactive or inconclusive. Potency means the concentration at half of the fitted maximal effect.

no.	Structure	Marburg entry inh	SARS PLP yeast	Cruzain inh noDet	LASV entry inh
1	O=C1Nc2ccccc2C(O)(C(=O)NCc2ccco2)N1c1ccccc1 (stereo not drawn)	2%	?	5%	-8%
2	Cc1cccnc1NC(=O)CCc1nnc2ccc(N3CCC4(CC3)OCCO4)nn12	.	-2%	.	.
3	CCCSc1nc(N2CCOCC2)c2c(c1C#N)CCCC2	-28%&-28%	-15%	-12%	-18%
4	CCOc1cc(/C=C2\SC(=S)N(NC(=O)c3cccnc3)C2=O)ccc1O	0%	1%	.	3%
5	Cc1ccc(NC(=O)C(C)N2C(=O)C3C4CC(C(Br)C4Br)C3C2=O)cc1 (stereo not drawn)	-15%	-3%	-10%	-8%
6	CC(=O)C1C(c2cccc([N+](=O)[O-])c2)C2C(C)=NN=C2CC1(C)O (stereo not drawn)	9%	6%	-6%	-2%
7	CCC(=O)c1ccc(N2CCN(C(=O)COc3ccccc3F)CC2)c(F)c1	0%[46.1 µM]	0%	.	-9%[46.1 µM]
8	Cc1cc(C)n(-c2ccc(F)cc2CN2CCN(Cc3ccccc3)C(CCO)C2)n1 (stereo not drawn)	?	1%	.	-18%[46.1 µM]

no.	RE007 growth inh	Cruzain inh Det	NS1 function inh	2A StopGo
1	-14%	-3.5%	6%	14%
2	-2%	.	14%	-18%
3	-1%	-2.7%	-4%	?
4	2%	.	8%	-23%
5	6%	1.3%	9%	-21%
6	-8%	4.0%	2%	-1%
7	-4%	.	-13%	-6%
8	-23%	.	-4%	-11%

Structural class, those above containing a halogen
no.	Structure	Marburg entry inh	SARS PLP yeast	Cruzain inh noDet	LASV entry inh
5	Cc1ccc(NC(=O)C(C)N2C(=O)C3C4CC(C(Br)C4Br)C3C2=O)cc1 (stereo not drawn)	-15%	-3%	-10%	-8%
7	CCC(=O)c1ccc(N2CCN(C(=O)COc3ccccc3F)CC2)c(F)c1	0%[46.1 µM]	0%	.	-9%[46.1 µM]
8	Cc1cc(C)n(-c2ccc(F)cc2CN2CCN(Cc3ccccc3)C(CCO)C2)n1 (stereo not drawn)	?	1%	.	-18%[46.1 µM]

no.	RE007 growth inh	Cruzain inh Det	NS1 function inh	2A StopGo
5	6%	1.3%	9%	-21%
7	-4%	.	-13%	-6%
8	-23%	.	-4%	-11%

(cont.)
no.	Structure	Marburg entry inh	SARS PLP yeast	Cruzain inh noDet	LASV entry inh
9	CN(Cc1ccccc1)C(=O)COC(=O)COc1ccc(C#N)cc1	.	7%	.	.
10	COc1ccc(CCn2c3c(c(=O)[nH]c2=O)C(NC(=O)c2ccc(Cl)cc2)(C(F)(F)F)C(=O)N3)cc1OC (stereo not drawn)	1%[46.1 µM]	.	3%	2%[46.1 µM]
11	Cc1ccc2c(c1)C1CN(C)CCC1N2C(=O)c1ccc(Cl)c(S(=O)(=O)N2CCOCC2)c1 (stereo not drawn)	.	2%	.	.
12	Cc1nn(CCc2n[nH]c(=S)n2-c2cccc(Cl)c2)c(C)c1[N+](=O)[O-]	12%	4%	4%	-9%
13	COC(=O)c1cc(S(=O)(=O)NCC2CCN(CCc3cccs3)CC2)cn1C	.	1%	.	20%[46.1 µM]
14	Cc1cc2c(c(=O)n1CCCn1ccnc1)C(c1ccco1)C(C#N)=C(N)O2 (stereo not drawn)	-9%	-10%	3%	-11%
15	CCn1c(=O)n(CC)c2cc([N+](=O)[O-])c(N3CCNCC3)cc21	-2%	0%	.	-21%
16	COCCn1c(C)cc(C(=O)COC(=O)CCS(=O)(=O)c2ccc(C)cc2)c1C	8%[46.1 µM]	.	.	20%

no.	RE007 growth inh	Cruzain inh Det	NS1 function inh	2A StopGo
9	16%	.	-3%	-11%
10	.	-0.3%	.	-23%
11	7%	.	-7%	-8%
12	-1%	6.8%	-2%	-15%
13	-6%	.	21%	16%
14	-8%	-1.2%	-2%	-17%
15	-14%	.	.	-4%
16	4%	.	.	3%

Two compounds drawn at random from those above, as already listed:
no.	Structure	Marburg entry inh	SARS PLP yeast	Cruzain inh noDet	LASV entry inh
7	CCC(=O)c1ccc(N2CCN(C(=O)COc3ccccc3F)CC2)c(F)c1	0%[46.1 µM]	0%	.	-9%[46.1 µM]
10	COc1ccc(CCn2c3c(c(=O)[nH]c2=O)C(NC(=O)c2ccc(Cl)cc2)(C(F)(F)F)C(=O)N3)cc1OC (stereo not drawn)	1%[46.1 µM]	.	3%	2%[46.1 µM]

no.	RE007 growth inh	Cruzain inh Det	NS1 function inh	2A StopGo
7	-4%	.	-13%	-6%
10	.	-0.3%	.	-23%

Later entries
no.	Structure	Marburg entry inh	SARS PLP yeast	Cruzain inh noDet	LASV entry inh
17	CCCCCN(C(=O)NC(=O)NC(C)CC)S(C)(=O)=O (stereo not drawn)	0%	-6%	8%	8%
18	CC(=O)c1c(C)[nH]c(C(=O)OCc2ccc(Br)cc2)c1C	?	-9%	.	-23%
19	CCCc1cc(=O)oc2cc(OCC(=O)NCCCN3CCOCC3)c(Cl)cc12	.	-1%	.	.
20	CC(=O)N1c2ccc(S(=O)(=O)NCC3CCC(C(=O)Nc4ncccc4C)CC3)cc2CC1C (stereo not drawn)	3%[46.1 µM]	-3%	.	21%[46.1 µM]
21	CCC(=O)Nc1ccc2c(c1)nc(CCNC(=O)c1ccco1)n2C	0%[46.1 µM]	0%	.	10%[46.1 µM]
22	Cc1ccc(-c2nc3ccccc3o2)cc1NC(=O)Cc1cccs1	12%	2%	-11%	27%
23	CCCCCNC(=O)C(=O)NCC(c1ccc2c(c1)OCO2)N1CCOCC1 (stereo not drawn)	.	.	-1%	-6%[46.1 µM]
24	Cc1cccc(N(C)S(=O)(=O)c2cccc3nsnc23)c1	1%	3%	5%	2%

no.	RE007 growth inh	Cruzain inh Det	NS1 function inh	2A StopGo
17	6%	3.8%	4%	.
18	-8%	.	-9%	0%
19	-13%	.	1%	-1%
20	-6%	.	-2%	-13%
21	7%	.	10%	5%
22	-3%	9.4%	1%	-3%
23	.	0.1%	.	-9%
24	17%	-6.8%	-1%	5%

(listing goes on)
no.	Structure	Marburg entry inh	SARS PLP yeast	Cruzain inh noDet	LASV entry inh
25	CCOC(=O)c1ccc(N2CC3=C(C2=O)C(c2ccc(OC)cc2)NC(=O)N3C)cc1 (stereo not drawn)	.	.	8%	-38%[46.1 µM]
26	Cc1ccc(-n2nnnc2-c2cnn(-c3cccc(F)c3)c2C(F)(F)F)cc1	?	15%	3%	?
27	CCn1c(SCC(N)=O)nc2cc(S(=O)(=O)N3CCOCC3)ccc21	12%[46.1 µM]	1%	.	-4%
28	CN(CCOc1ccccc1)C(=O)CCc1nc2sc3c(c2c(=O)[nH]1)CCCC3	0%	6%	.	10%
29	COc1cccc(NC(=S)Nc2ccc(F)cc2)c1	-8%[46.1 µM]	1%	.	-6%[46.1 µM]
30	Cc1ccc(CNC(=O)CCn2cc(-c3ccc(C)cc3)nc2-c2ccncc2)cc1	.	-1%	.	.
31	COCCN1CN(S(=O)(=O)c2ccccc2)c2nc3ccccc3nc21	7%	1%	-3%	5%
32	CC(C)CSc1ncnc2c1oc1nc3c(cc12)COC(C)(C)C3	13%	4%	?	20%

no.	RE007 growth inh	Cruzain inh Det	NS1 function inh	2A StopGo
25	.	-0.7%	.	-22%
26	-18%	-5.2%	3%	?
27	-12%	.	13%	0%
28	-19%	.	?	-17%
29	-2%	.	13%	17%
30	-11%	.	-6%	-17%
31	3%	-13%	-32%	-11%
32	-8%	-3.7%	-3%	26%

Shown bar-delimited: part of the list above
nr | smiles | Marburg entry inh | SARS PLP yeast | Cruzain inh noDet | LASV entry inh | RE007 growth inh | Cruzain inh Det | NS1 function inh | 2A StopGo
25 | CCOC(=O)c1ccc(N2CC3=C(C2=O)C(c2ccc(OC)cc2)NC(=O)N3C)cc1 (stereo not drawn) | . | . | 8% | -38%[46.1 µM] | . | -0.7% | . | -22%
26 | Cc1ccc(-n2nnnc2-c2cnn(-c3cccc(F)c3)c2C(F)(F)F)cc1 | ? | 15% | 3% | ? | -18% | -5.2% | 3% | ?
